Assay outcomes from PubChem BioAssay.
Sa RN4220 lethal = kills Staphylococcus aureus RN4220; S. aureus RN4220 growth, OD600, 16 h; inhibition, % (test concentration not listed); 0.33% of 330,000 active; AID 1259311;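 active = z-score of -3 or lower and OD600 up to 0.18 on both plates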;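 note: plate controls were untreated cells for no effect and reference antibiotic for full effect; stock transfer was 100 nL into about 80 µL; one replicate is shown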
BJeLR viability = BJeLR cell viability loss; BJeLR (HRASV12) viability, CellTiter-Glo ATP luminescence, 48 h; reference of the scale not given here; inhibition, % (concentration not given with the values); 0.17% of 300,000 active; AID 1554;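 active = replicate mean above 50%; inconclusive = above 50% but judged a plate artefact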;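 note: 50 nL library stock added to about 25 µL; numbers are from one replicate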
Mtb hypoxia rep = reduces hypoxia-regulated biosensor signal in M. tuberculosis | M. tuberculosis hypoxia-regulated fluorescent reporter, fluorescence | fluorescence inhibition, % (concentration not given with the values) | 0.1% of 300,000 active | AID 1159583;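 active = 35 to 45% if threefold the growth effect, above 45% if 1.5-fold the growth effect; inactive = the rest, general growth blockers included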;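 note: wells of about 50 µL received 100 nL stock; 0% = vehicle wells and 100% = reference inhibitor wells; whole bacteria with a GFP reporter of the hypoxia response; strong numbers were not always called active; many hits fall short of the cut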
Sa ugtP lethal = kills S. aureus RN4220 lacking UgtP; growth inhibition, % (no concentration beside the values); S. aureus RN4220 ugtP deletion, OD600 growth, 16 h; some inactives read as strong as hits; 0.54% of 330,000 active; AID 1259309;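 active = z-score under -3 and OD600 up to 0.15 on both plates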;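 note: plate controls were untreated wells for no effect and antibiotic for full effect; wells of about 80 µL received 100 nL stock; the first replicate is given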
Bead autofluor = compound fluorescence in toxin protease inhibitor counterscreen; fluorescence intensity (test concentration not listed); compound autofluorescence counterscreen, microsphere flow cytometry; stronger effect = higher value; 3.1% of 360,000 active;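 active = at least 3 SD above the mean of all compounds, about 16000 in these data; inconclusive = too few beads counted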;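 note: 100 nL of 1 mM stock went into each well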
PrP UTR inh = suppresses PrP 5' UTR mRNA reporter expression. cell-based PrP 5' UTR mRNA reporter, plate reader. inhibition, % (no concentration beside the values). AID 488862. 0.35% of 340,000 active;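 active = every replicate at 50% or more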;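 note: 0 = median of the neutral control wells; tested in H4 reporter cells; numbers are from one replicate; inactives centre near -14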
Mtb hypoxia rep growth = further read-out of Mtb hypoxia rep, marked with its call; growth inhibition, %; measured here: M. tuberculosis growth (absorbance);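 0% = vehicle and 100% = reference antibiotic; read after six days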
The depositor's hits bear a star; ? = inconclusive; / = not tested or not shown. This is a random part of the collection; overall some 4% were active at least once.

Order of values – Sa RN4220 lethal, BJeLR viability, Mtb hypoxia rep, Mtb hypoxia rep growth, Sa ugtP lethal, Bead autofluor, PrP UTR inh
COc1ccc(C(C)=O)cc1COc1cccc2cccnc12
→ 1.9, -8, 7, 4, -1, 4019, 0
CCOC(=O)C1CCN(S(=O)(=O)c2cccc(-c3cn4ccccc4n3)c2)CC1
→ 2.3, 1, 9, 9, -1, 3826, -16
O=c1[nH]nc(CNc2ccc(O)cc2)c2ccccc12
→ 4.4, 2, 2, 2, 0, 4446, 7
C=CCNC(=O)C12CC3CC(C1)CC(C(=O)NCC=C)(C3)C2
→ -4.8, -17, -4, -6, -10, 5946, -14
CCc1ccc(C2CC(c3cccc(OC)c3)n3nc(N)nc3N2)cc1 (stereo not given)
→ 4.4, 10, /, /, 6, 6445, -6
S=c1[nH]nc(CN2CCCCC2)n1-c1ccc(Cl)cc1
→ 1.4, 0, 1, -1, -2, 3910, -10
CCCCCCn1c(=O)[nH]c2nc3cc(N)c(C)cc3nc2c1=O
→ 3.3, /, -17, 13, 4, 2980, -22
COc1ccc(-n2cnc3cc([N+](=O)[O-])ccc32)cc1
→ 3.4, 4, -2, -10, -3, 2074, -11
CCC(C)(C)NC(=O)C(c1ccc(OC)cc1)N(C(=O)CCC(=O)Nc1cc(C)on1)c1ccccc1OC (stereo not given)
→ 3.5, -13, 7, 3, 7, 3866, -14
CCOc1ccc(N(CC(=O)NC2CCCCCC2)S(=O)(=O)c2c(C)[nH]c(=O)[nH]c2=O)cc1
→ 1.8, 7, 0, 9, 5, 4318, 5
O=C(Cc1cccc(NC(=O)C2CCCN(C(=O)C3CCCC3)C2)c1)Nc1cccc(C(=O)N2CCCCC2)c1 (stereo not given)
→ 4.8, /, -2, 8, 2, 3785, -12
CC1CCC(NC(=O)c2cc(C3CC3)nn2-c2ccccc2)CC1 (stereo not given)
→ 1.5, /, -7, 7, 0, 4075, -15
O=C(Cc1ccccc1Cl)Nc1ccc(S(=O)(=O)N2CCOCC2)cc1
→ 4.9, 0, -1, 1, 5, ?, -1
CC[n+]1ccccc1/C=C/Nc1ccccc1
→ 4.2, 7, 3, 0, 10, 3473, -24
O=C(CN1C(=O)C2CC=CCC2C1=O)Nc1ccc(S(=O)(=O)NC2=NCCCCC2)cc1 (stereo not given)
→ 4.1, -3, /, /, 3, /, -3
CC(=O)Oc1ccc2c(C)c(CC(C)O)c(=O)oc2c1 (stereo not given)
→ 1.7, -13, 8, -4, 5, 10096, -17
CN(c1ccc(C(=O)O)cc1)S(=O)(=O)c1ccccc1
→ -16, 3, 9, 8, -5, 3432, -13
CCOC(=O)NC(=O)COC(=O)c1ccc(O)cc1
→ 11, -4, 2, 11, -2, 5080, -28
Cc1ccc(S(=O)(=O)/N=C(\N)Nc2nc(C)c3ccc(C)cc3n2)cc1
→ /, -5, /, /, /, 10869, -35
CCn1nc(C)c(Br)c1Nc1ccc(Br)cc1
→ 6.9, 15, -1, -5, 4, 3382, -22
COC(=O)c1cnc(N2CCCN(S(=O)(=O)c3ccccc3)CC2)nc1C(F)(F)F
→ 5.9, 2, 1, -2, 8, /, 2
COc1cc(CN2CCNC(=O)C2CC(=O)NC2CCCC2)cc(OC)c1 (stereo not given)
→ -2.7, 9, -3, -6, -4, 5993, -8
Cc1cccc(NC(=O)CSCc2c(C)noc2C)c1C
→ 1.6, 4, /, /, 3, 4608, 3
O=C(Nc1ccc(F)cc1)N(Cc1ccco1)Cc1cc2cc3c(cc2[nH]c1=O)OCO3
→ -12, -4, 17, 11, -5, 3278, -22
Cc1ccc(-c2csc3nc4cc(C(=O)NC5CCC(O)CC5)ccc4c(=O)n23)cc1 (stereo not given)
→ 0.0, -13, 14, 14, 7, 3979, -8
COc1ccc(-n2nc3c(c2NC(=O)C2CC(=O)N(c4ccccc4)C2)CS(=O)(=O)C3)cc1 (stereo not given)
→ -2.4, -3, 8, 3, 1, 5461, -9
Cc1cc(C)c(C#N)c(SCCS(=O)(=O)c2ccc(C(C)(C)C)cc2)n1
→ 11, -4, 5, 3, 16, 3243, -2
CCCCN1CCc2c1nc1ccc(Br)cc1c2N
→ 4.6, -10, 1, 6, -12, 7078, -18
N#CCCN(CCC#N)c1nncs1
→ 1.0, -3, 7, 12, 1, 3072, -26
O=C(CCS(=O)(=O)c1ccc2c(c1)NC(=O)CS2)NCCc1ccc(Cl)cc1
→ -0.1, 2, -1, 2, -2, 5819, -15
Cc1cccc(C(=O)NC2C(=O)NNC2c2ccc(Cl)cc2)c1 (stereo not given)
→ /, -4, /, /, /, 2596, -22
CCN(C(=O)COC(=O)Cn1cnc2c1c(=O)n(C)c(=O)n2C)C1CCS(=O)(=O)C1 (stereo not given)
→ 4.8, -10, 6, 3, 0, 4278, -22
CCC(=O)Nc1ccc(N2CCCCC2)c(C(=O)Nc2ccccc2C)c1
→ 19, 1, 15, 10, -19, 9666, 0
Oc1ccc(Br)cc1-c1cc(-c2ccc(Cl)cc2)n[nH]1
→ -23, 4, 16, 6, -10, 3210, -33
Cc1ccc(S(=O)(=O)n2cnc3cc([N+](=O)[O-])ccc32)cc1C
→ -1.3, 0, -9, 0, -4, 11232, -13
CCN(CC)CCN(C(=O)C1=COCCO1)c1nc2c(OC)ccc(OC)c2s1
→ 0.8, -4, 7, 5, 9, 5941, -17
Cc1ccc(S(=O)(=O)/N=S(\C)C(C)C)cc1 (stereo not given)
→ 2.5, 0, 5, 7, 8, 2731, 1
O=C(CSc1nc(=O)n2ccccc2n1)Nc1cccc2ccccc12
→ 4.2, -10, 2, 2, -4, 7271, -4
CC(C)(CC(=O)O)CC(=O)O
→ 6.2, 4, 20, 14, 1, 4142, -3
O=C(CCCC(=O)c1ccccc1)NCCc1ccccc1
→ 2.8, 0, 5, 6, -3, 3111, /
CCc1ccc(CN2CCC(n3nccc3NC(=O)c3ccccc3C)CC2)cc1
→ 2.2, -6, -6, -6, -4, 4520, 1
COc1ccc(C(=O)OC(C(=O)c2ccccc2)c2ccccc2)cc1 (stereo not given)
→ 0.1, -2, /, /, 28, 3414, -2
COc1ccc(NC(=O)CN2C(=O)C(C)Oc3ccccc32)cc1 (stereo not given)
→ 2.3, -5, 7, 7, 8, 23500*, -18
CCC(C)(C)n1nnnc1CN1CCC(NC(=O)c2ccc(Br)cc2)CC1
→ -0.8, -1, /, /, -7, 4801, -15
O=C(C[n+]1cccc(CNC(=O)c2ccc(OC(F)F)cc2)c1)Nc1ccc(F)cc1
→ -3.3, -5, 5, -1, -1, 2433, -20
Cc1cc(NC(=O)c2ccccc2F)nc2c1c(=O)oc1ccccc12
→ 2.1, -14, -8, 5, 5, 4142, 5
Cc1cccc(C)c1NC1=NCCCS1
→ 1.6, 5, -10, -7, 1, 5990, -17
CCOC(=O)CC1c2ccccc2S(=O)(=O)N1Cc1ccc(Cl)cc1 (stereo not given)
→ 4.1, /, 11, 13, -10, /, /
C=C(C)C1CC=C(C)/C(=N\NC(=O)CCC(=O)Nc2ccc(C)c(C)c2)C1 (stereo not given)
→ /, -7, /, /, /, 4330, -15
Cn1cc(C(=O)c2ccccc2)cc1-c1nc2ccccc2n1C
→ 3.0, -16, 2, 0, -5, 5425, -11
COc1ccccc1N(C)S(=O)(=O)c1ccc(C(=O)OCC(=O)NCC(F)(F)F)cc1
→ 3.7, 3, 9, 4, 2, 4752, -15
CC(Sc1nnc(-c2ccccc2F)o1)C(=O)Nc1ccc(N2CCOCC2)cc1 (stereo not given)
→ 3.9, /, -3, -3, 12, ?, -16
O=C(Oc1ccc(F)cc1)c1ccc2c(=O)n3c(nc2c1)CCC3
→ 6.0, 0, 11, 16, -11, ?, -7
O=S(=O)(NC1=NCCCCC1)c1ccccc1Cl
→ 3.5, 2, -16, -4, 2, 3506, -19
Cc1ccc(N=C2NC(=O)/C(=C/c3cccn3C)S2)c(C)c1
→ 0.0, -7, 5, 16, -30, 5898, -16
O=C(O)c1ccc2c(c1)C(=O)N(C(Cc1ccccc1)C(=O)O)C2=O (stereo not given)
→ 2.0, -3, 12, 2, 2, 7789, -10
Nc1cc2ccncc2c2ccccc12
→ 2.7, -3, 15, 7, 3, 3156, 7
CCOc1ccc(CCNC(=O)c2nccnc2C(=O)O)cc1OCC
→ 3.4, -2, 5, 4, 10, 3626, -3
CS(=O)(=O)N1N=C(c2ccc(Br)cc2)CC1c1cccs1 (stereo not given)
→ 6.9, -2, /, /, -2, /, -54
CC(=O)c1ccc(OCC(=O)Nc2ccc3nc(C)sc3c2)cc1
→ 0.2, 6, 16, 4, 2, 4762, -22

Among those listed so far, these have a cyano group:
Order of values – Sa RN4220 lethal, BJeLR viability, Mtb hypoxia rep, Mtb hypoxia rep growth, Sa ugtP lethal, Bead autofluor, PrP UTR inh
Cc1cc(C)c(C#N)c(SCCS(=O)(=O)c2ccc(C(C)(C)C)cc2)n1
→ 11, -4, 5, 3, 16, 3243, -2
N#CCCN(CCC#N)c1nncs1
→ 1.0, -3, 7, 12, 1, 3072, -26

Further structures.
Order of values – Sa RN4220 lethal, BJeLR viability, Mtb hypoxia rep, Mtb hypoxia rep growth, Sa ugtP lethal, Bead autofluor, PrP UTR inh
O=C(Nc1cccc(S(=O)(=O)NCc2ccco2)c1)c1cccc(Cl)c1
→ 1.3, /, 13, 7, 8, ?, -11
COC(=O)c1ccc(COC(=O)c2ccc(N(C)C)cc2)cc1
→ 5.3, 0, -8, 0, 10, 10271, -36
O=C(c1cccnc1)N1CCN(C(=O)c2cccc(Cl)c2)CC1
→ -2.5, 1, 4, 10, 2, 3437, -6
CCCCNc1nc(C)c(C(C)=O)cc1C#N
→ 6.7, -6, 18, -2, 13, 3283, -2
Cc1noc(C)c1S(=O)(=O)N1CCC(C(=O)N2CCN(C3CCCC3)CC2)CC1
→ 5.4, 5, -11, 16, 3, /, /
COC(=O)[C@H](C)NC(=O)c1cc2c(cn1)[nH]c1ccccc12
→ /, 8, /, /, /, 3955, -20
Cc1ccc2c(C)cc(=S)[nH]c2c1
→ 2.8, 3, 24, 18, 5, 5143, -17
Cc1ccc(SCCC(=O)Nc2ccc(Br)c(C)c2)cc1
→ 5.0, 6, 1, -2, -7, 7086, -14
O=C(NC1(C(F)(F)F)NC(=O)N(Cc2cccnc2)C1=O)c1ccc(F)cc1 (stereo not given)
→ 5.4, 0, -1, 6, 7, 23016*, -19
CCOC(=O)N/N=C(C)/C=C/c1ccccc1
→ /, -3, /, /, /, 2226, -27
COC(=O)c1nn(-c2ccccc2)c(Sc2ccc(OC)cc2)c1/C=N/O
→ /, 7, /, /, /, 3277, 2
COc1ccc(C(=O)O)cc1S(=O)(=O)N1CCCc2ccccc21
→ 3.2, -2, 13, -1, 4, 3121, -5
C=CCOc1c(Br)cc(CNn2cn[nH]c2=S)cc1OC
→ 4.4, 3, 11, 13, 1, 4703, -19
C=CCC1NCCc2c(Br)cccc21 (stereo not given)
→ 5.0, -4, 4, 12, 6, 2854, -15
COc1ccc(NC(=O)CSc2nnc(-c3ccccc3)n2Cc2ccco2)c(OC)c1
→ 0.5, -1, /, /, 16, 3420, -7
COc1cccc(C(=O)C2CCCN(Cc3cn(CC(N)=O)c4ccccc34)C2)c1 (stereo not given)
→ -4.9, 5, -6, -2, -1, 3812, -16
CCc1ccccc1N/C(=N/S(=O)(=O)c1ccccc1)C(F)(F)F
→ 0.8, /, 10, -2, -1, /, /
CC(O)[C@H]1CNC(=O)C(=O)N1CC1CCCCC1 (stereo not given in full)
→ /, 3, /, /, /, 4088, -18
CCC(=NCc1ccco1)c1c(O)n(-c2ccc(C)cc2)c(=O)[nH]c1=O
→ -1.5, 1, 1, 5, -4, 11045, -2
CCCC(=O)NCCc1cc(OC)c(OC)cc1Br
→ -1.8, -19, -3, -7, -1, 2491, -8
CCOc1cc(/C=N/Nc2nnc(C)n2N)ccc1OC(C)=O
→ /, 2, /, /, /, 3568, -33
Cc1cccc(C)c1-n1c(SCC(=O)Nc2ccc(C(=O)O)cc2)nnc1-c1cccc(S(=O)(=O)N(C)C)c1
→ 0.6, 1, 3, 3, 10, 4498, 1
CC(=O)N1CCN(C(C)=O)C1c1ccccc1
→ 2.2, -22, -2, 3, 5, 5467, -20
O=C(NCC1CCCO1)C1CCCN(Cc2cnn(-c3ccccc3)c2-n2cccc2)C1 (stereo not given)
→ 9.8, -3, 1, 4, -3, 2832, -21
COc1cc([N+](=O)[O-])cc2cc(C(=O)NC(C)(C)C)c(=O)oc12
→ -1.6, -6, 11, 2, 2, 2578, -21
CNC(=O)CSc1nc2c(c(=O)n(C)c(=O)n2C)n1Cc1ccc(C)cc1
→ 5.4, -1, -5, 6, -1, 11026, -9
